# Rango release inh: inhibition of RanGTP-driven Rango-importin beta dissociation. O95149+P62826. Biochemical FRET Rango-importin beta, RanGTP-induced dissociation. Potency, µM (highest dose often 46.1 µM), inactives show top-dose activity change, negative = inhibition. 340,000 tested, 0.071% active; active means falling FRET ratio curve, often poorly fitted, with flat reads before Ran was added; inconclusive means other falling curves, or compound fluorescence or quenching; inactive means flat or rising ratio curve;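 further: potency means the concentration at half of the fitted maximal effect; % of control where 0% means no effect; nearly all actives have a fitted effect of over 45% in size; -100% = wells without RanGTP and RCC1; the record marks most hits as doubtful in a second field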
#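 Rango/importin beta premix (0.1/0.25 uM final), PBS + 1 mM DTT + 0.02% Tween-20 + 0.1% BSA; cpd 5 min RT; FRET pre-read; + RanGTP-RCC1 (0.6 uM Ran, 2 mM GTP, 0.2 uM RCC1); 45 min RT; FRET post-read, ex 430, em 486/530 nm.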
# miR-21 reporter: miR-21 reporter, rising signal | HeLa miR-21 FLuc reporter, luciferase, 48 h | Potency, µM (titrated, usually from 38.3 µM), for inactives: at the top dose reporter change, positive = more light | 340,000 tested, under 10 active | AID 2288; active = well fitted rising curve with a large enough effect; inconclusive = small, poorly fitted or top-dose-only effect; inactive = no such curve, though single readings can be large or run the other way;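 further: % of control where 0% means no effect; miR-21 action dims this reporter so a rising signal means less miR-21 action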
#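 Compounds were titrated across several concentrations (up to approximately 40 uM) and incubated 48 hours with HeLa miR-21-FLuc reporter cells (miR-21 target sequence downstream of FLuc, endogenous miR-21). Readout was firefly luciferase luminescence after lytic detection reagent.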
# GLA inh pH 4.5: alpha-galactosidase A (human) inhibition, pH 4.5. purified enzyme, 4-MU-alpha-Gal fluorescence, pH 4.5. activity change, negative = inhibition, % at 105 µM. 230,000 tested, under 10 active. AID 1467; inconclusive = small, poorly fitted or top-dose-only inhibition, or a rising curve; inactive = flat fitted curve, though single readings scatter; no compound was filed as active;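 further: 0% = full activity with enzyme and -100% = basal without enzyme; dose as in the result columns while the protocol names 77 µM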
# Rango-impB inh: prevents formation of the Rango-importin beta complex; Rango CFP/YFP FRET sensor + importin beta, 45 min; AID 540263; 340,000 tested, 0.031% active; Potency, µM (series often up to 92.2 µM), without a hit: at the top dose inhibition of complex formation; Q14974; active = rising FRET ratio curve, often small or poorly fitted; inconclusive = mostly compound fluorescence or quenching in the first reads; inactive = flat curves in all reads;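 further: potency means the concentration at half of the fitted maximal effect; 0% = DMSO wells and 100% = buffer wells lacking importin beta; nearly all actives have a fitted effect of over 15% in size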
# Target sequence (Q14974 whole entry, looked up): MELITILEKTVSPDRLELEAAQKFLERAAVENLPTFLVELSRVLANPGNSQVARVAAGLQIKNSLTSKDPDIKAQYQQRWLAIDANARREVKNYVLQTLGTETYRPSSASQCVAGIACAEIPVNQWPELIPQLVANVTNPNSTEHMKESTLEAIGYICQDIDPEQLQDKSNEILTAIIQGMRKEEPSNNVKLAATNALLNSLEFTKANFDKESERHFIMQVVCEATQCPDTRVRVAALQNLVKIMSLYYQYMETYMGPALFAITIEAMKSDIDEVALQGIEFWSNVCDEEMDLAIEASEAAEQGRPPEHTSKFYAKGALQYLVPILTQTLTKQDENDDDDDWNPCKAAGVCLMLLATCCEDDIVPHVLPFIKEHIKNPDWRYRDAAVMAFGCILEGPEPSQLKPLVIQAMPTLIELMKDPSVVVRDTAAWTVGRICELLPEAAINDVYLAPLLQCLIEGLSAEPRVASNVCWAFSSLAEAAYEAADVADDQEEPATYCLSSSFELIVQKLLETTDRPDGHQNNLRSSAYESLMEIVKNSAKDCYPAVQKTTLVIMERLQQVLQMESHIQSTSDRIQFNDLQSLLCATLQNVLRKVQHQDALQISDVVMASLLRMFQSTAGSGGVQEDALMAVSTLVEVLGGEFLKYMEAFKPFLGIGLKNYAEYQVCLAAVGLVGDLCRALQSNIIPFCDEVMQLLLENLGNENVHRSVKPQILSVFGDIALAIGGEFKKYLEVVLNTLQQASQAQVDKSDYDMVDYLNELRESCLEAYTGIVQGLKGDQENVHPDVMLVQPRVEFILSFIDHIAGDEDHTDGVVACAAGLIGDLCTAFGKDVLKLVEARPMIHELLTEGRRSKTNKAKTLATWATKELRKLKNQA
#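 FRET biosensor (snurportin 1 IBB flanked by EYFP and cerulean), 50 nM, with compound 5 min, then 0.125 microM importin beta in PBS, 1 mM DTT, 0.02% Tween-20, 0.1% BSA. CFP/YFP ratio read after 45 min at room temperature; pre-read flags interference.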
# * hit, by the source's call; ? = inconclusive; nt = not tested or not shown; & = joins results of further samples. A portion of the library; count on the stated rates, not on these rows.
SMILES,Rango release inh,miR-21 reporter,GLA inh pH 4.5,Rango-impB inh
Nc1cc(S(=O)(=O)Nc2ccc(Br)cc2)ccc1Cl,2%,3%,-6,1.2%
Cc1ccccc1NC(=O)c1cccc(S(=O)(=O)Oc2ccc([N+](=O)[O-])cc2)c1,5%,-6%,-1,-4.3%
Cc1noc(C)c1C(=O)Nc1ccc(Cl)cc1C(F)(F)F,0%,-5%,-4,-1.1%
COc1ccc(CCNC(=O)C2CCN(S(C)(=O)=O)CC2)cc1,11%,-2%,-12,-2.6%
CCOC(=O)c1c(/N=C/C2=C(O)CC(C)(C)CC2=O)sc(C(C)=O)c1C,0%,-21%,4,?
CO/N=C\CC(=O)Nc1ccc(Cl)c(Cl)c1,-6%,12%,4,?
Cc1ccc(C(C(=O)NC(C)(C)C)N(CCCN2CCOCC2)C(=O)c2ccc(-c3ccccc3)[nH]2)o1 (stereo not given),1%,-4%,3,-2.4%
Cc1cc(S(=O)(=O)N2CCCCC2CCNC(=O)C(=O)NCc2cccnc2)ccc1F (stereo not given),7%,nt,nt,-0.7%
CCOc1ccccc1C(=O)OCC(=O)NCCc1ccc(OC)cc1,7%,nt,nt,1.7%
O=C(CCC(=O)OCC(=O)c1ccc(Cl)cc1)NC1CCCCC1,27%,1%,4,1.1%
COc1ccc(-n2c(SCC(=O)Nc3ccc(NC(C)=O)cc3)nc3ccccc3c2=O)cc1,7%,1%,nt,-1.9%
CCN(Cc1ccncc1)C(=O)c1ccc2c(c1)S(=O)(=O)c1ccccc1C2=O,0%,-19%,3,-3.3%
CCOc1ccccc1-c1cc(-c2n[nH]c(=S)n2CC)c2ccccc2n1,0%,1%,2,-1.7%
Cc1cc(/C=N/NC(N)=S)c(C)n1-c1ccc(Cl)cc1,-10%,17%,-2,-0.4%
Cc1cccc(NC(=O)CCCCCN2C(=O)[C@@H]3Cc4ccccc4CN3C2=O)c1,2%,7%,nt,-3.5%
CCC1CCC2(CC1)NC(=O)N(CC(=O)Nc1cc(C)on1)C2=O (stereo not given),19%,-3%,2,-2.9%
COc1cc(NC(=O)Cn2c([N+](=O)[O-])cnc2C)c(OC)cc1Cl,5%,-2%,nt,-0.4%
CCC(=O)n1nc(-c2ccc(Cl)cc2)nc1N,-8%,-19%,-6,0.3%
COc1cc(/C=C/c2[nH]c(=O)[nH]c(=O)c2[N+](=O)[O-])cc([N+](=O)[O-])c1O,4%,1%,nt,2.7%
COc1cc(NC(=O)c2cc(C)nc3ccccc23)cc(OC)c1OC,-9%,-1%,-2,-0.9%

# Arranged by the number under miR-21 reporter (highest first): 3 of the compounds above.
SMILES	miR-21 reporter
COc1cc(NC(=O)Cn2c([N+](=O)[O-])cnc2C)c(OC)cc1Cl	-2%
Cc1noc(C)c1C(=O)Nc1ccc(Cl)cc1C(F)(F)F	-5%
CCOC(=O)c1c(/N=C/C2=C(O)CC(C)(C)CC2=O)sc(C(C)=O)c1C	-21%

# Further compounds
SMILES,Rango release inh,miR-21 reporter,GLA inh pH 4.5,Rango-impB inh
Cc1nc2ccc(NC(=O)NCCO)cc2s1,-16%,-13%,-4,?
CCOc1ccccc1OCCCCN1CCCC1,-12%,0%,-8,-3.0%
Cc1cc(NS(=O)(=O)c2ccc(NC(=O)/C=C/c3ccco3)cc2)nc(C)n1,?,2%,-10,?
COc1ccccc1NC(=O)/C(=C\c1cccs1)NC(=O)c1ccco1,2%,-1%,-2,-2.3%
COc1cccc(N2CCN(C(=O)c3cc4ccc(OC)cc4[nH]3)CC2)c1,16%,2%,nt,0.0%
CCC(=O)Nc1nnc(SCCOC)s1,4%,-9%,-10,4.7%
COc1cc(NC(=O)CN2C(=O)c3ccccc3Sc3ccc(C(=O)N4CCOCC4)cc32)cc(OC)c1OC,18%,-4%,-4,-2.9%
O=C(CS(=O)(=O)Cc1ccccc1)N1CCN(c2ccccc2F)CC1,-6%,-14%,nt,0.0%
CCCC(CCC)C(=O)OC1C[C@H]2CC[C@@H](C1)[N+]2(C)C (stereo not given in full),-12%,-2%,9,-3.4%
Cc1cc(S(=O)(=O)Nc2ccc(F)cc2)c(C)s1,-13%,-2%,7,4.6%
CC(C)(C)c1nnc(NC(=O)CCS(=O)(=O)Cc2ccccc2)s1,5%,10%,nt,4.4%
CC(C)COC(=O)CCNc1n[nH]c(=O)[nH]c1=O,-11%,0%,-4,2.4%
COc1ccc(S(=O)(=O)NCc2ccncc2)cc1NC(=O)c1ccccc1C,-10%,nt,nt,0.5%
COc1ccccc1NC(=O)CSc1nncn1-c1cccnc1,-3%,-4%,-10,1.5%
CCc1ccccc1N(C)S(=O)(=O)c1ccc2[nH]cc(C(=O)O)c(=O)c2c1,-24%,2%,-1,-2.7%
CC(C)c1nc(SCC(=O)N2CCCc3ccccc32)c2c(=O)n(C)c(=O)n(C)c2n1,-3%,-2%,-9,-2.4%
COc1ccc(CN2CCN(CCC(C)C)C(CCO)C2)cc1Cn1cncn1 (stereo not given),-9%,-3%,-27,0.7%
COc1ccc(CCn2c(SCC(=O)Nc3cc(C)on3)nc3ccccc3c2=O)cc1OC,-1%,1%,5,-3.5%
Cc1csc(NC(=O)CCCc2cccs2)n1,0%,-40%,0,4.1%
O=C(NC(Cc1c[nH]c2ccccc12)C(=O)O)c1ccc(Br)cc1 (stereo not given),-9%,0%,-3,2.5%
O=C1C(=O)N(Cc2ccco2)C(c2cccc(Cl)c2)/C1=C(\O)c1ccc2c(c1)OCCO2 (stereo not given),27%,-2%,-6,-1.0%
CCCCC(=O)Nc1cc2nn(-c3ccc(OC)cc3)nc2cc1C,?,-20%,2,5.0%
O=C(NCCCN1CCOCC1)NC1CCCCC1,29%,-5%,-3,0.4%
COc1ccc(CNC(=O)CN(C)S(=O)(=O)c2ccc3c(c2)c(=O)n(C)c(=O)n3C)cc1,14%,1%&-7%,nt,-2.4%
COc1ccccc1CCc1nnc(CCC(=O)N(C)Cc2cccc3cnccc23)o1,-1%,-52%,7,0.6%
Cc1nc2scc(C)n2c(=O)c1S(=O)(=O)N1CCN(c2ccccc2)CC1,-25%,-12%,nt,0.5%
COc1nc(-c2ccccc2)ccc1-c1noc(C)n1,0%,-62%,7,-0.3%
COc1ccc(C(CNC(=O)c2oc3ccc(Cl)cc3c2C)N2CCCCC2)cc1 (stereo not given),20%,-1%&-1%,nt,6.4%
CCN(CC)S(=O)(=O)c1cccc(NC(=O)C2CC(=O)N(c3ccc4c(c3)OCCO4)C2)c1 (stereo not given),9%,nt,nt,5.9%
O=C(NC(=S)N1CCCC1)c1ccc(Cl)cc1Cl,?,-4%,nt,-0.8%
COC(=O)C1=C(C)NC(=O)/C1=C\c1ccco1,9%,-1%,4,-0.2%
Cc1ccc2cc(CCNC(=O)c3ccc(S(=O)(=O)N4CCCCC4)cc3)c(=O)[nH]c2c1,-20%,-4%,-3,-1.8%
COc1ccc(S(=O)(=O)N2CCOCC2)cc1NC(=O)CSc1nnc2ccccn12,nt,-1%,-1,nt
Cc1ccc(NC(=O)c2cc(-c3ccco3)on2)cc1,0%,-20%,-5,-0.9%
O=C(Nc1ccc(-c2nc3c(ccc4ccccc43)o2)cc1)c1ccco1,-21%,-33%,1,2.3%
Cc1ccc2nc(SCC(=O)Nc3ccc(F)cc3)nc(=O)n2c1,-14%,nt,nt,-1.4%
COC(=O)c1cc2ccsc2n1CC(=O)Nc1cc(C)cc(C)c1,4%,-10%,4,1.1%
Cc1cc(CN(C)C(=O)CC2C(=O)NCCN2Cc2ccc(-c3ccccc3)cc2)on1 (stereo not given),-4%,5%,nt,-0.8%
COc1ccc(-n2c(C)cc3cc(OC(C)=O)ccc32)cc1,0%,-18%,nt,2.7%
COC(=O)[C@H](Cc1ccccc1)NC(=O)c1ccc2ccccc2n1,2%,-13%,nt,2.5%

# Look-ups from the results shown.
# O=C(NC(=S)N1CCCC1)c1ccc(Cl)cc1Cl in miR-21 reporter reads -4%
# COc1ccc(-n2c(C)cc3cc(OC(C)=O)ccc32)cc1 in Rango-impB inh reads 2.7%

# Single records (already shown).
# Entry for COc1ccc(S(=O)(=O)NCc2ccncc2)cc1NC(=O)c1ccccc1C : Rango release inh: -10%; miR-21 reporter: nt; GLA inh pH 4.5: nt; Rango-impB inh: 0.5%
# Entry for COc1ccc(CNC(=O)CN(C)S(=O)(=O)c2ccc3c(c2)c(=O)n(C)c(=O)n3C)cc1 : Rango release inh: 14%; miR-21 reporter: 1%&-7%; GLA inh pH 4.5: nt; Rango-impB inh: -2.4%

# Next part.
SMILES,Rango release inh,miR-21 reporter,GLA inh pH 4.5,Rango-impB inh
Cc1ccc(N2CC(C(=O)Nc3cc(C)on3)CC2=O)c(C)c1 (stereo not given),-2%,-5%,nt,-0.1%
Cc1ccccc1-n1c(SC/C(O)=C(\C#N)c2nc3ccccc3[nH]2)nnc1-c1ccncc1,?,3%,4,?
O=c1c(Cc2ccc(F)cc2)c(O)ccn1CCc1ccccn1,2%,2%,7,1.6%
O=C(COC(=O)c1ccccc1Cl)Nc1nccs1,-7%,-5%,3,3.7%
Cc1cc(C)n(CC(=O)NNC(=O)CCNC(=O)c2ccccc2Cl)n1,0%,nt,nt,2.0%
Cc1ccccc1CSCCNS(C)(=O)=O,0%,-3%,3,-0.2%
O=C(CC1NCCc2ccccc21)Nc1cccc(Cl)c1 (stereo not given),15%,-65%,3,-2.7%
CCn1c2ccccc2c2cc(Nc3cc(C)nc4ncnn34)ccc21,5%,17%,3,3.4%
Cc1ccnc(NC(=O)c2cccc(NC(=O)c3ccc(Cl)cc3)c2)c1,1%,nt,nt,3.4%
CN(C)C(/C=C/Nc1ccccc1F)=C(C#N)C#N,-9%,-5%,-5,-0.5%
O=C(CCC1(C(=O)O)CCC(=O)NC1)NCc1ccccc1 (stereo not given),17%,-3%,-2,2.9%
Cc1cccc(NC(=O)/C(C#N)=C/c2ccc(Sc3ccccc3)o2)c1C,-19%,-5%,-2,?
COc1ccc(N2C(=O)C(Cl)=C(Oc3cccc(OC)c3)C2=O)cc1,10%,0%,0,-2.1%
Cc1ccccc1NC(=O)CN1C(=O)S/C(=C\c2cccn2-c2cccc(C(=O)O)c2)C1=O,-11%,0%,1,0.2%
N#Cc1c(NC(=O)C2C3C=CC(C3)C2C(=O)O)sc2c1CCCCC2 (stereo not given),-3%,-1%,5,-1.3%
COc1cccc(-n2c(SCc3ccccn3)nc3c(c2=O)SCC3)c1,-13%,-7%,-19,1.1%
O=c1[nH]c(CN2CCN(c3ccccc3Cl)CC2)nc2ccsc12,0%,-10%,0,2.1%
COc1ccc(CCNC(=O)CN(c2cccc([N+](=O)[O-])c2)S(C)(=O)=O)cc1,-5%,1%,5,-1.0%
CC(C)Oc1ccc(CSc2ncn[nH]2)cc1,0%,-25%,-4,-0.6%
COc1ccc(/C=N/NC(=O)c2cc(-c3ccccc3OC)nc3ccccc23)cc1COC(C)=O,2%,3%,-6,3.8%
CC(=O)c1ccccc1NS(=O)(=O)c1ccc2c(c1)CC(=O)N2,-4%,nt,nt,1.8%
O=C(Nc1cccc(-c2cn3c(n2)SCC3)c1)c1ccc2ccccc2n1,10%,-23%,-9,0.0%
CSCCCNC(=S)N1CCc2ccccc2C1,2%,0%,5,-3.0%
Cn1nnc2ccccc2c1=O,-1%,1%,3,1.2%
O=C(O)CC(=O)Nc1ccc(Oc2ccc(C(F)(F)F)cn2)c(Cl)c1,1%,-4%,-7,3.7%
COc1ccccc1C(C[N+](=O)[O-])c1c[nH]c2ccccc12 (stereo not given),-7%,28%,-24,1.0%
O=C(CSc1ncn[nH]1)Nc1cccc(S(=O)(=O)N2CCCCCC2)c1,13%,9%,4,3.9%
CC(=O)c1cccc(NC(=O)c2cccc(N3C(=O)c4ccccc4C3=O)c2)c1,-8%,-3%,nt,0.6%
Cc1ccnc(NC(=O)CCC(=O)N(CC(=O)NC(C)(C)C)C2CCCC2)c1,2%,-5%,-10,0.4%
CCCC(c1nnnn1C(C)(C)CC)N1CCN(C(=O)c2ccco2)CC1 (stereo not given),5%,-5%,nt,-1.3%
Cc1ccc(S(=O)(=O)N(C)CC(=O)NNC(=O)CCS(=O)(=O)c2ccccc2)cc1,-17%,nt,nt,0.3%
